From PubChem
Cruzain Triton: qHTS Assay for Promiscuous and Specific Inhibitors of Cruzain (with detergent); Cruzipain (Trypanosoma cruzi), P25779; purified cruzain, Z-FR-AMC fluorescence, 0.01% Triton; Potency, µM, for inactives: max response, negative = inhibition, hits mostly inhibitors; 200,000 tested, 0.43% active; AID 1478, 2009; active = well fitted curve in the direction sought with a large enough effect; inconclusive = small, poorly fitted or top-dose-only effect, or another doubt; inactive = no such curve, though single readings can be large; an effect the other way counts as inactive or inconclusive;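 note: plate controls were neutral wells for no effect and buffer without enzyme for full effect; nearly all actives have a fitted effect of over 40% in size; top concentration of the series not given in the record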
Target sequence (P25779 123-467 limits assumed): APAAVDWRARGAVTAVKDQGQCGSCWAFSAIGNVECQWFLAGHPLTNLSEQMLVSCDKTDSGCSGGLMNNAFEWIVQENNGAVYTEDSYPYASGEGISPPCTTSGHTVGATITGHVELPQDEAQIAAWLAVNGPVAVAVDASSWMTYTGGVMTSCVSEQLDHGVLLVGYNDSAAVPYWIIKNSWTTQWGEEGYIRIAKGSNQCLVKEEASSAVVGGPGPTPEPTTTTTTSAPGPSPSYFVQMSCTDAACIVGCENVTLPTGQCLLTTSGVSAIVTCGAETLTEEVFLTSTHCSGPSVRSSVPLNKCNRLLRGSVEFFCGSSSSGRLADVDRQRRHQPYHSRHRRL
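Sodium acetate buffer (100 mM, pH 5.5) containing 5 mM DTT and 0.01% Triton X-100 hosted 1.5 nM cruzain and test compound for 15 min at room temperature. Cleavage of 2 uM Z-FR-AMC was then tracked by fluorescence.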
RE007 growth inh: qHTS Assay for Inhibitors of the HIV-1 protein Vpr; S. pombe RE007 Vpr strain, BacTiter-Glo ATP luminescence, 24 h; control for the full effect not named in the record; Potency, µM (titrated, usually from 92.2 µM), for inactives: top-dose activity change, negative = less growth; 360,000 tested, 0.21% active; active = well fitted falling curve with a large enough effect; inconclusive = small, poorly fitted or top-dose-only effect; inactive = no such curve, though single readings can be large or run the other way;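 note: % is set by controls: 0 for no effect and ±100 for the full control effect; nearly all actives have a fitted effect of over 50% in size; the assay follows cell death caused by Vpr and the record does not say whether a fall means rescue or toxicity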
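Fission yeast RE007 carrying one integrated HIV-1 vpr copy, seeded at OD 0.01 in PMG+AL medium with 23 nL pinned compound. Grown 24 h at 30 degrees; viability read by BacTiter-Glo luminescence after 5 min.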
StopGo reporter: High Throughput Screening for Foot and Mouth Disease Virus Antivirals. human cells with a luciferase reporter of 2A StopGo recoding; control for the full effect not named in the record. Potency, µM (top dose mostly 57.9 µM), inactives show at the top dose signal change, negative = less light. 410,000 tested, 1.2% active. AID 1159524, 2015; active = well fitted falling curve with a large enough effect; inconclusive = small, poorly fitted or top-dose-only effect; inactive = no such curve, though single readings can be large or run the other way; tested in HEK293T cells; note: % is set by controls: 0 for no effect and ±100 for the full control effect; nearly all actives have a fitted effect of over 45% in size; luciferase light after 4 h
Lassa entry inh: qHTS for Inhibitors of binding or entry into cells for Lassa Virus; Lassa virus pseudotype entry inhibition, cell reporter; control for the full effect not named in the record; Potency, µM (doses to about 37.9 µM), inactives show top-dose activity change, negative = inhibition, most hits filed as inhibitors; 300,000 tested, 1.2% active; active means well fitted inhibition curve with a large enough effect; inconclusive means small, poorly fitted or top-dose-only effect, or effect the other way; inactive means flat fitted curve, though single readings scatter; tested in HEK293 cells; note: % is set by controls: 0 for no effect and ±100 for the full control effect; nearly all actives have a fitted effect of over 50% in size; luciferase read-out
NS1 inh: qHTS Assay for Inhibitors of Influenza NS1 Protein Function; S. cerevisiae slowed by influenza A NS1, growth recovery by OD600; Potency, µM (titrated, usually from 46.1 µM), for inactives: at the top dose activity, positive = more growth; 270,000 tested, 0.4% active; AID 2326, 2010; note: actives are rising curves; nearly all actives have a fitted effect of over 50% in size
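Compounds were scored for reversing the slow growth caused by influenza A NS1 in S. cerevisiae, measured by optical density at 600 nm. Assay medium contained 2% galactose at pH 6.0; NS1-free yeast of the same strain were the positive control.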
Cruzain inh noDet: qHTS Assay for Promiscuous and Specific Inhibitors of Cruzain (without detergent) | Cruzipain (Trypanosoma cruzi), P25779 | purified cruzain, Z-FR-AMC fluorescence, no detergent | Potency, µM, without a hit: max response, negative = inhibition, actives largely listed as inhibitors | 200,000 tested, 2.3% active | AID 1476, 2009; active = well fitted curve in the direction sought with a large enough effect; inconclusive = small, poorly fitted or top-dose-only effect, or another doubt; inactive = no such curve, though single readings can be large; an effect the other way counts as inactive or inconclusive;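 note: plate controls were enzyme without inhibitor for no effect and buffer without enzyme for full effect; nearly all actives have a fitted effect of over 40% in size; top concentration of the series not given in the record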
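Detergent-free condition (0.00005% Triton X-100) in acetate buffer pH 5.5 with DTT. 1.5 nM enzyme and compound were pre-mixed 15 min, then 2 uM Z-FR-AMC substrate added; reaction progress from fluorescence change between first and third reads (60 s).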
MARV entry inh: qHTS for inhibitors of binding or entry into cells for Marburg Virus; Marburg virus pseudotyped entry inhibition, cell reporter; control for the full effect not named in the record; about a third of the inactives were read at about 46 µM; 300,000 tested, 1.8% active; Potency, µM (series often up to 37.8 µM), for the others: top-dose activity change, negative = inhibition, actives largely listed as inhibitors; AID 540276, 2011; active = well fitted inhibition curve with a large enough effect; inconclusive = small, poorly fitted or top-dose-only effect, or effect the other way; inactive = flat fitted curve, though single readings scatter; tested in HEK293 cells; about a fifth of its hits are not listed in these tables; note: % is set by controls: 0 for no effect and ±100 for the full control effect; luciferase read-out
SARS PLP yeast: qHTS of Yeast-based Assay for SARS-CoV PLP; S. cerevisiae expressing SARS-CoV PLpro, growth rescue; control for the full effect not named in the record; Potency, µM (series often up to 32.9 µM), for inactives: at the highest dose activity, positive = growth rescue; 330,000 tested, 0.19% active; AID 485353, 2010; note: 0% is about no effect; nearly all actives have a fitted effect of over 55% in size; growth read by luminescence after 48 h
Starred values were filed as active, the others as inactive; ? = inconclusive; / = no result given; [ ] = dose if it differs, or a comment. Unless noted, calls come from the whole dose curve; as a rule, active means well fitted rising curve with a large enough effect; inconclusive means small, poorly fitted or top-dose-only effect; inactive means no such curve, though single readings can be large or run the other way. Potency is the fitted concentration of half-maximal effect.

SMILES	Cruzain Triton	RE007 growth inh	StopGo reporter	Lassa entry inh	NS1 inh	Cruzain inh noDet	MARV entry inh	SARS PLP yeast
COc1ccc(CCNC(=O)CSc2nnc(C(C)N(C)C)n2Cc2ccccc2)cc1OC (stereo not drawn)	/	15.2%	8.8%	-13.1%	-2.5%	/	2.0%[46.1 µM]	1.0%
COC(=O)c1c(C)c[nH]c1C	/	-4.7%	-17.4%	/	-0.1%	/	/	0.0%
S=c1[nH]nc(-c2ccco2)n1/N=C/c1ccccc1	/	-22.8%	-1.7%	?	-2.3%	/	15.3%[46.1 µM]	-0.1%
Cc1cc(C)n(C(=O)c2ccc([N+](=O)[O-])cc2Cl)n1	/	5.3%	-17.1%	-19.8%[46.1 µM]	9.1%	/	-16.4%[46.1 µM]	3.0%
CCc1oc(C(=O)O)cc1COC	-3.0%	-4.8%	44.6%[activator]	27.8%	-3.5%	11.4%	19.4%	6.2%
O=C(c1cccc(C(F)(F)F)c1)N1CCC(O)(CS(=O)(=O)Cc2ccc(Cl)cc2)CC1	2.6%	-0.4%	-1.4%	-5.0%	0.2%	20.1%	6.2%	5.8%
Cc1cccc(NS(=O)(=O)c2cccc(C(=O)N3CCN(S(=O)(=O)c4ccccc4)CC3)c2)c1	/	2.3%	6.3%	?	/	/	?	-24.7%
O=C(Nc1ccc(Cl)c(Cl)c1)c1csc(-c2ccccc2)n1	-11.0%	5.9%	14.5%	13.5%	13.8%	?	12.4%	3.8%
COc1ccccc1-c1cc(C(F)(F)F)nc(NCc2cccs2)n1	-8.0%	-3.4%	-15.8%	-24.2%	-19.4%	6.2%	?	-50.1%
CCCCOc1ccc(/C=N/NC(=S)Nc2cccc(C)c2C)cc1	-1.8%	-11.5%	-21.2%	?	-2.9%	-23.4%	-28.3%	12.1%
Cc1cc(=O)[nH]c(SCC(=O)OCc2ccccc2)c1C#N	/	7.6%	-1.6%	-12.6%	3.8%	/	-1.0%[46.1 µM]	-0.7%
O=C(COC(=O)/C=C/c1ccc(F)cc1)NCc1ccc2c(c1)OCO2	/	2.2%	-7.7%	24.6%[46.1 µM]	/	/	8.7%[46.1 µM]	-12.0%
CNS(=O)(=O)c1cccc(C(=O)OCC(=O)c2c(N)n(Cc3ccccc3)c(=O)n(C)c2=O)c1	/	1.3%	2.7%	14.1%	/	/	-5.3%	/
Cc1cc(F)ccc1NC(=O)CCS(=O)(=O)c1cccc2nsnc12	-2.7%	/	-2.2%	?	/	0.1%	6.5%[46.1 µM]	/
O=S(=O)(NCC(Nc1ccc(Cl)cc1)c1ccccc1)c1ccc(Cl)cc1 (stereo not drawn)	-4.2%	/	-2.7%	?	3.9%	-7.6%	?	3.4%
CNc1nc(C)c(C(C)=O)cc1C#N	1.4%	?	-8.1%	0.6%	3.8%	-3.6%	1.3%	-9.1%
O=C(O)CNC(=O)c1ccc(NS(=O)(=O)c2ccc3ccccc3c2)cc1	/	1.6%	-9.7%	9.4%	-5.9%	/	-3.3%	1.2%
O=C(NCCc1ccc(Cl)cc1)c1c2c(nc3ccccc13)C(=O)N(C1CCCCC1)C2	-0.9%	/	-16.1%	0.8%[46.1 µM]	/	-6.1%	/	/
Cc1cc(NC(=O)COC(=O)[C@H](C)NC(=O)c2ccccc2)no1	-4.0%	-7.4%	-9.1%	21.1%	-7.8%	-22.4%	10.4%	-4.0%
COc1ccc(NS(=O)(=O)c2ccc(NC(=O)N3CCCC3)cc2)cc1	-0.6%	/	-13.8%	?	/	-1.8%	/	/
CC(=O)c1ccc(NC(=O)c2cc(-c3ccc(Cl)c(Cl)c3)on2)cc1	-3.6%	/	1.6%	13.4%[46.1 µM]	/	-3.4%	4.0%[46.1 µM]	/
CC(=O)Nc1ccc(S(=O)(=O)N2CCN(C(=O)N3CCCCCC3)CC2)cc1	14.6%	4.5%	-15.3%	?	0.3%	-11.4%	?	1.2%
CC[n+]1c(C)n(-c2ccccc2)c2ccc(C(=O)OC)cc21	/	9.1%	6.5%	-18.3%	0.5%	/	15.8%[46.1 µM]	1.0%
COc1cc(/C=C/CN2CCC(CO)(CC3CCCCO3)CC2)ccc1O (stereo not drawn)	/	-12.7%	-10.3%	-10.8%	3.9%	/	?	1.4%
O=C(CSCc1ccc(Cl)cc1)Nc1ccc(S(=O)(=O)N2CCCCCC2)cc1	-0.8%	0.0%	-14.9%	-22.8%	-15.5%	1.5%	?	-35.9%
O=c1[nH]c(=S)c2ncn(-c3ccccc3)c2[nH]1	/	-9.4%	-5.2%	2.2%[46.1 µM]	5.6%	/	?	-0.4%
Cc1nn(C)c(C)c1CN(C)C(=O)C1(C)CC1(Br)Br (stereo not drawn)	-0.1%	-0.6%	-16.4%	13.6%	-6.4%	-0.5%	-16.1%	28.8%
Cc1cc(/C=C2/SC(=S)N(c3cccc(C(F)(F)F)c3)C2=O)c(C)n1-c1cccnc1	/	-8.2%	?	?	/	/	?	/
Cc1cccc(C)c1NC(=O)CN1C(=O)S/C(=C\c2cccn2-c2cccc(C(=O)O)c2)C1=O	-19.0%	-13.5%	-10.0%	9.6%	4.3%	?	12.2%	4.7%
COC(=O)CCc1c(C)nc(N)[nH]c1=O	5.3%	6.6%	-16.8%	-4.0%	-0.9%	-5.1%	-1.6%	11.4%
Cc1cc(=O)[nH]c(SCCCOc2ccccc2Cl)n1	5.1%	4.6%	-5.8%	4.7%	-6.9%	-8.1%	-7.9%	?
C/C(=N\O)C(=O)NCc1ccccn1	0.1%	-10.2%	5.9%	12.0%	1.1%	-3.3%	3.9%	-1.7%
CCC(c1nnc(SCC(=O)Nc2c(F)cccc2F)n1Cc1ccccc1)N(C)C (stereo not drawn)	/	-20.5%	-19.9%	/	-37.5%	/	/	6.2%
COc1ccc(C(=O)CCC(=O)Nc2ccccc2C)cc1	0.2%	/	3.3%	29.9%[46.1 µM]	/	-7.3%	/	/
O=C(c1cccs1)N1CCN(c2ccccc2)CC1	/	-16.1%	0.0%	2.7%[46.1 µM]	/	/	19.7%[46.1 µM]	1.1%
Cc1ccc(OCCSc2nc3ccccc3n2CC(=O)O)cc1C	/	12.1%	-2.4%	/	?	/	/	2.9%
CCN(c1ccccc1)S(=O)(=O)c1ccc(Cl)c(NC(=O)CN2CCCCCC2)c1	/	-14.1%	?	?	-1.3%	/	?	-0.4%
Nc1n[nH]c(N)c1N=Nc1cccc(F)c1	-11.1%	-11.3%	0.0%	0.9%	10.0%	-14.0%	12.4%	0.3%
O=C(NN(c1ccccc1)c1ccccc1)c1ccc([N+](=O)[O-])o1	/	-2.8%	0.5%	-17.3%[46.1 µM]	/	/	?	0.9%
Cc1ccc(NC(=O)CSc2nc3ccc(NC(=O)c4cccc(Cl)c4)cc3s2)c(C)c1	-1.4%	/	-10.9%	-5.1%[46.1 µM]	/	5.3%	2.4%[46.1 µM]	/

4 compounds drawn at random from those above, as already listed:
SMILES	Cruzain Triton	RE007 growth inh	StopGo reporter	Lassa entry inh	NS1 inh	Cruzain inh noDet	MARV entry inh	SARS PLP yeast
O=C(c1cccs1)N1CCN(c2ccccc2)CC1	/	-16.1%	0.0%	2.7%[46.1 µM]	/	/	19.7%[46.1 µM]	1.1%
O=c1[nH]c(=S)c2ncn(-c3ccccc3)c2[nH]1	/	-9.4%	-5.2%	2.2%[46.1 µM]	5.6%	/	?	-0.4%
CCC(c1nnc(SCC(=O)Nc2c(F)cccc2F)n1Cc1ccccc1)N(C)C (stereo not drawn)	/	-20.5%	-19.9%	/	-37.5%	/	/	6.2%
Nc1n[nH]c(N)c1N=Nc1cccc(F)c1	-11.1%	-11.3%	0.0%	0.9%	10.0%	-14.0%	12.4%	0.3%

The results go on.
SMILES	Cruzain Triton	RE007 growth inh	StopGo reporter	Lassa entry inh	NS1 inh	Cruzain inh noDet	MARV entry inh	SARS PLP yeast
Cc1cc(-c2ccn[nH]2)c(C)s1	/	5.3%	-7.9%	21.4%[46.1 µM]	-9.5%	/	2.3%[46.1 µM]	0.0%
CC(=O)N1N=C(c2cccc(NS(C)(=O)=O)c2)CC1c1cccs1 (stereo not drawn)	/	8.6%	4.2%	-0.7%	/	/	-7.7%[14.2 µM]	-0.1%
CCc1ccc(-c2ccc(C(=O)C(F)(F)F)[nH]2)cc1	-3.0%	7.3%	33.6%[activator]	?	-19.7%	-23.9%	?	-3.4%
Cc1cccc(N2CCN(C(=O)CS(=O)(=O)c3cccc4nsnc34)CC2)c1C	-4.6%	/	-20.6%	?	/	6.6%	/	/
COc1ccc(CCNC(=O)c2cc(=O)c3cc(C)c(C)cc3o2)cc1OC	-1.4%	/	-14.6%	?	/	-10.1%	6.5%[46.1 µM]	/
C=C(Cl)COc1ccc2c(C)cc(=O)oc2c1	0.1%	1.2%	/	1.8%	-17.0%	7.4%	7.8%	-30.4%
Cc1cccc(NC(=O)c2c(NC(=O)c3ccccc3)sc3c2CCCC3)c1	-2.0%	/	-4.8%	4.1%[46.1 µM]	/	-5.0%	/	/
CCc1nnc(N/N=C/c2cccs2)n1N	-5.3%	-9.6%	-14.7%	-1.8%	-63.9%	-15.0%	?	-1.7%
COc1cc2c(cc1OC)C(c1ccc(Br)cc1)N(C(=O)c1ccccc1C(=O)O)CC2 (stereo not drawn)	/	-16.7%	-0.4%	/	13.0%	/	/	-8.4%
CCOC(=O)c1c(C)nc2c(c1-c1ccccc1)C(=O)CCC2	2.0%	-16.1%	0.0%	-5.0%	2.9%	7.4%	-7.8%	0.7%
CSc1ccccc1NC(=O)CSc1nnc(CNC(=O)c2ccccc2F)n1C	/	7.2%	13.0%	-8.5%	-13.2%	/	7.3%[46.1 µM]	-0.5%
Cc1cccc(N(CC(=O)NC(C)c2ccccc2)S(=O)(=O)c2ccccc2)c1C (stereo not drawn)	-4.6%	/	8.9%	?	/	3.0%	?	/
